A1 inh – inhibitors of the anti-apoptotic protein A1, read as caspase activation. MEF A1-2A-BIM cells, Caspase-Glo 3/7 luminescence, 3 h; percent of clofoctol response, vehicle zero. caspase activation, % (concentration not given with the values). 330,000 tested, 0.066% active. AID 2462;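 active means over half of replicate activation scores above 10%, or exactly half above 10 with the replicate mean above 10; inconclusive means replicate mean below 10 yet half the replicates above 10; inactive means over half of replicates below 10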;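 further: wells of about 30 µL received 50 nL stock; many hits fall short of the cut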
MLL AF4-AF9 inh – inhibitors of human MLL-AF4/AF9 interaction. P42568. AlphaScreen, biotin-AF4 peptide binding to FLAG-AF9. 350,000 tested, 0.47% active. AID 651704. inhibition, % at 10 µM;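 active means every replicate reaching a set inhibition limit, whatever the replicate mean, cut at about 25% in these data; inconclusive means mean inhibition reaches that limit but some replicates miss it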;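 further: 0% = plate neutral control median and 100% = total signal loss; the record names both 10 and 1 µM as test concentration; the first replicate is given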
Target sequence (P42568 whole entry, looked up): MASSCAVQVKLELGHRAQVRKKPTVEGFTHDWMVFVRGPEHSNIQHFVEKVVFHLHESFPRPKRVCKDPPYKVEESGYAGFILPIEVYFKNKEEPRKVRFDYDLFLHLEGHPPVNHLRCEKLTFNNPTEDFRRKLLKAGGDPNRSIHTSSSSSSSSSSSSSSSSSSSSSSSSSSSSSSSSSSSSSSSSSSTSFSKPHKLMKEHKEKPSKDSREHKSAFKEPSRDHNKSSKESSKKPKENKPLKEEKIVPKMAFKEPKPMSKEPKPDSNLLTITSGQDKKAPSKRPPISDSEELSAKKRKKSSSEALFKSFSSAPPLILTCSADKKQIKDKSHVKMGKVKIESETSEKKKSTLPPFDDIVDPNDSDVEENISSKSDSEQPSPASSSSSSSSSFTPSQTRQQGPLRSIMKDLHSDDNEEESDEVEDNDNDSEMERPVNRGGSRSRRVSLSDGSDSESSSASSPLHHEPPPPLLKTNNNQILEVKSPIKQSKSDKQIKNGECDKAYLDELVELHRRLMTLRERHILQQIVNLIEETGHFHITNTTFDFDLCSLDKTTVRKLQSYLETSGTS
Ecoli rRNA inh – inhibits bacterial ribosomal RNA function over humanized ribosomes | E. coli WT GFP vs humanized-ribosome RFP mutants, fluorescence, 24 h; hits give low values; DMSO median 0, no signal -100 | GFP signal change (wild-type ribosome), % (test concentration not listed) | 350,000 tested, 1.6% active;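 active means significant combined selectivity score with lowered wild-type GFP, culture density cut under 30%, mutant RFP and density less affected; inactive means any of these conditions unmet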; further: one replicate is shown; some compounds called inactive have numbers as strong as hits
Vif TR-FRET – HIV-1 Vif–A3G interaction blockers – biochemical, TR-FRET, GST-Vif 1-94, biotin-A3G peptide, dose response retest, primary screen (AID 1117319); TR-FRET GST-Vif / biotin-A3G peptide binding; higher % means a stronger effect; test concentration not given here; strong numbers were not always called active; inhibition, %, or IC50 in µM where a hit was titrated; 260,000 tested, 0.57% active;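 active means above the screen mean plus three standard deviations and confirmed in dose response; inconclusive means results disagree or hit not tested in dose response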;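 further: Vif residues 1-94 fused to GST binding biotinylated APOBEC3G peptide 110-148; 0% = full assay without inhibitor and 100% = GST in place of GST-Vif; retest series ran down from 100 µM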
Calb FLC – affects C. albicans growth with fluconazole; C. albicans CaCi-2 (fluconazole-resistant clinical isolate) + fluconazole, Alamar Blue growth, 48 h; growth inhibition, % (concentration not given with the values); 300,000 tested, 0.57% active; AID 1979;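 active means most replicates above 75%; inconclusive means exactly half above 75%; inactive means most below 75%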;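 further: all wells also contain fluconazole at 8 µg/ml as a sub-toxic cotreatment; 0% = median of DMSO wells and 100% = median of geldanamycin control wells; wells of about 8 µL received 7.5 nL stock; the first replicate is given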
Beta apoptosis – blocks beta cell apoptosis; INS-1E cytokine-induced death, ATP luminescence, 48 h; percent of positive-control rescue, neutral wells zero; protection from apoptosis, % (test concentration not listed); 300,000 tested, 0.8% active; AID 435005;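 active means all replicates at 75% or more, or half of them and the mean; inconclusive means half reach 75% but not the mean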;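 further: 0% = cytokine-treated negative control wells and 100% = positive control rescue; higher means more ATP so stronger rescue from cytokine killing; wells of about 40 µL received 100 nL stock; the first replicate is given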
RanGTP-Imp inh – inhibitors of RanGTP-importin-beta interaction, primary screen, biochemical, FRET, CFP-Ran, YFP-importin-beta, homogeneous; cell-free CFP-Ran/YFP-importin-beta FRET ratio; inhibition, % (concentration not given with the values); 300,000 tested, 1.1% active; AID 2216;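 active means most replicates above 15%; inconclusive means exactly half above 15%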;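 further: 0% = DMSO wells and 100% = Ran loaded with GDP instead of GTP; wells of about 40 µL received 100 nL stock; the first replicate is given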
T cruzi inh – blocks replication of Trypanosoma cruzi; T. cruzi beta-gal in NIH3T3, luminescence, 90 h; inhibition, % (test concentration not listed); 300,000 tested, 1.4% active;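 active means mean inhibition across valid replicates above about 55%, limit read from the data; inconclusive means mean below that limit but half or more replicates reach it; inactive means mean below it, under half of replicates reach it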;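 further: signal also drops with host cell toxicity which is not excluded here; 0% = plate median of DMSO wells and 100% = zero luminescence signal; higher percent means less beta-gal luminescence so fewer parasites; stock transfer was 50 nL into about 50 µL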
Ecoli rRNA inh OD600 – recorded beside Ecoli rRNA inh, whose call it bears; OD600 change, %; measured here: OD600 growth;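 optical density of the mix in the first replicate; 0 = DMSO median and -100 = no signal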
Ecoli rRNA inh RFP – second read-out of Ecoli rRNA inh, no call of its own (marks repeat the call); RFP signal change, %; measured here: RFP humanized mutant strains;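 first replicate; 0 = DMSO median and -100 = no signal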
* hit, by the source's call; u = inconclusive; x = no result given. This is a subset; rates above refer to the full screens.

SMILES	A1 inh	MLL AF4-AF9 inh	Ecoli rRNA inh	Ecoli rRNA inh OD600	Ecoli rRNA inh RFP	Vif TR-FRET	Calb FLC	Beta apoptosis	RanGTP-Imp inh	T cruzi inh
Cc1ccccc1C(=O)NC(=S)Nc1ncccn1	-0.2	-7.3	7.5	3.4	1.1	0.7%	8.8	2.0	-3.5	-17.1
O=c1cc(COn2nnc3ccc(C(F)(F)F)cc32)nc2sccn12	0.2	x	x	x	x	u	14.6	-5.0	-0.3	-1.7
COc1ccc(CNC(=O)CN2CCN(S(=O)(=O)c3cccs3)CC2)cc1OC	-0.5	0.1	5.8	3.1	0.3	4.7%	-8.0	-5.9	1.4	0.1
Cc1ccc(SCc2c(C(=O)N/N=C/c3ccoc3)nnn2-c2nonc2N)cc1	-0.3	-0.2	-16.0	-14.0	1.2	x	-4.0	-5.3	0.7	-10.0
Cc1ccc(C(N)=S)c(C)c1	0.3	x	x	x	x	0.2%	-9.1	-1.9	-1.9	-2.8
CN1CCC(NC(=O)Cc2c(F)cccc2Cl)CC1	-0.2	x	x	x	x	27.6%	-0.3	-2.8	-2.3	42.6
COc1ccc(C(=O)N2CCN(C3CCC(c4ccccc4)CC3)CC2)cc1OC (stereo unspecified)	0.0	x	x	x	x	17.4%	3.7	-5.4	5.3	39.8
c1cncc(CSc2ccc(-c3cccs3)nn2)c1	-6.2	-0.9	-4.1	0.3	2.6	-4.8%	7.4	17.1	1.6	16.0
O=C(c1ccccc1F)N1CCOCC1	0.6	-0.6	30.8	35.8	3.3	-11.1%	5.0	0.3	-0.6	-7.9
O=C(CCCN1C(=O)/C(=C/c2cccc(Br)c2)SC1=S)Nc1cccnc1	2.2	-0.1	-16.4	-22.1	-1.2	-5.6%	50.5	-8.6	-3.5	25.6
CC(C)(C)c1ccc(C2/C(=C(\O)c3ccc4c(c3)OCCO4)C(=O)C(=O)N2CCCN2CCOCC2)cc1 (stereo unspecified)	-0.2	3.0	0.7	3.0	-2.7	x	-7.0	-9.2	2.8	-10.6
Cc1ccc(S(=O)(=O)N2CCCCC2)cc1NC(=O)c1ccc2ccccc2n1	0.7	0.4	14.4	13.7	-2.4	4.3%	6.7	7.7	u	13.4
O=c1c2ccccc2nnn1CSc1nnc(-c2cccnc2)n1-c1ccccc1F	0.4	x	x	x	x	-1.2%	-0.8	-8.3	4.1	-9.4
CC(=O)NN1C(=O)c2ccccc2NC1c1cccc([N+](=O)[O-])c1 (stereo unspecified)	1.0	-3.6	1.9	12.9	-1.9	-10.8%	-5.6	-2.9	-3.8	-8.3
CCOc1cc(/C=N/NS(=O)(=O)c2ccccc2)ccc1OS(=O)(=O)c1ccc(C)cc1	0.1	x	x	x	x	7.5%	22.7	-8.8	-3.0	x
CCN(CC(=O)Nc1c(F)cccc1F)C(=O)c1ccc(COc2ccccc2)o1	3.0	-40.2	-2.7	-9.4	-2.4	-0.5%	-1.9	-0.8	x	-0.6
O=C(Oc1c(Br)cc(Br)c2cccnc12)N1CCCCC1	0.3	-1.9	-54.8	-69.0	-9.4	-51.8%	6.2	-3.4	u	5.8
COc1ccc(C)cc1N(CC(=O)Nc1cccc(N(C)S(C)(=O)=O)c1)S(C)(=O)=O	0.1	x	10.5	6.3	1.9	-0.8%	-9.0	2.8	0.1	1.8
O=C(Nc1ccccc1)C1CCCN1/C=C/C(=O)C(F)(F)F (stereo unspecified)	0.3	-3.6	8.2	6.0	-1.1	1.7%	6.0	5.3	-3.3	-2.7
Cc1nc2scc(-c3ccc(Cl)cc3)c2c(=O)n1N	-0.2	1.1	-19.2	-28.2	-8.0	1.1%	-26.0	5.9	-0.3	-13.2
CCOC(=O)N1CCN(CC(=O)c2c(C)[nH]c3ccccc23)CC1	-0.8	x	x	x	x	-0.3%	-0.6	-2.5	-2.3	0.0
COCCNC(=O)CSc1nc2cc3c(cc2c(=O)n1CCCC(=O)NCc1ccc(OC)cc1)OCO3	-0.4	-1.4	12.4	4.3	-0.1	-10.4%	0.1	-0.1	-0.9	9.4
CSc1ccc(/C=C(\C#N)C(=O)NC2CCCCC2C)cc1 (stereo unspecified)	0.3	3.1	x	x	x	-14.4%	2.4	2.1	3.1	-11.0
Cc1occc1-c1nnc(SCC(=O)Nc2c(F)cccc2F)n1C	-1.2	-0.7	3.8	3.8	-4.0	3.8%	-7.5	-0.1	2.0	-1.1
c1ccc(Oc2cccc3cccnc23)nc1	0.7	-3.8	7.8	-0.3	5.2	13.7%	-2.4	-4.8	0.9	1.2
COc1ccc(CNC(=O)C(=O)NCC2CCCO2)cc1 (stereo unspecified)	0.4	x	x	x	x	0.0%	-20.2	-3.5	u	-11.0
Nc1c(NCc2ccccc2)c(=O)[nH]c(=O)n1Cc1ccccc1	0.5	x	x	x	x	-6.7%	-4.6	-6.5	-5.3	-10.0
Cc1cn(C2OC(CC(=O)Oc3ccccc3)C(O)C2O)c(=O)[nH]c1=O (stereo unspecified)	0.0	4.4	13.9	5.1	2.0	x	-6.5	-3.2	4.2	14.3
CN(C(=O)c1ccccc1C(=O)OCC(=O)Nc1ccccc1)c1ccccc1	0.6	-3.6	-3.2	-3.7	-1.5	-8.9%	x	-2.0	x	x
COc1ccc(C(=O)N2N=C(c3ccc(NS(C)(=O)=O)cc3)CC2c2cccs2)cc1 (stereo unspecified)	0.2	-3.8	-12.4	-15.2	8.8	-10.5%	13.9	-15.8	-2.5	1.6
O=C(Nc1ccn(Cc2ccccc2)n1)c1cccc(Cn2cc([N+](=O)[O-])cn2)c1	0.3	x	x	x	x	-1.2%	-11.8	1.1	3.2	10.3
O=C(c1ccccc1F)N1CCN(c2ccc([N+](=O)[O-])cc2-n2cccc2)CC1	0.0	10.9	-9.5	-4.9	7.2	5.5%	-0.2	9.0	1.3	22.3
O=C1CN(C(=O)c2cc(F)cc(F)c2)c2ccccc2N1	-0.3	-3.9	-0.7	4.8	3.4	-2.4%	6.0	-3.1	3.4	-7.6
Cc1ccc(N/C(=C\C(=O)c2ccccc2)C(=O)O)cc1	-0.8	3.9	-14.8	-7.1	-1.7	x	-20.6	-1.3	-1.1	7.3
COc1ccc2c(c1)cc(C(O)c1ccccn1)n2S(=O)(=O)c1ccccc1 (stereo unspecified)	0.3	x	x	x	x	-1.3%	-7.0	-7.2	-4.4	12.4
Cc1cc([N+](=O)[O-])c(NCCCCCCO)c([N+](=O)[O-])c1	-0.7	x	x	x	x	x	26.0	-2.4	8.5	-2.8
Cc1ccnc(NS(=O)(=O)c2ccc(NC(=O)/C=C/c3cccs3)cc2)n1	-1.5	-1.1	6.2	2.9	-3.3	x	1.7	-4.6	4.4	-15.6
Cc1cc(C(=O)Nc2ccccc2)oc(=O)c1	-2.6	-1.9	3.1	3.5	0.1	x	-9.0	2.5	1.4	-6.1
O=C(C1CCN(S(=O)(=O)c2cccs2)CC1)N1CCCC(C(F)(F)F)C1 (stereo unspecified)	0.2	-0.9	x	x	x	-4.9%	0.0	-0.2	-1.0	-6.9
CCN(c1ccccc1)S(=O)(=O)c1cc(OC)ccc1OC	1.0	x	x	x	x	-0.5%	-6.7	-5.2	5.2	x
CCc1cccc(C)c1NC(=O)CSc1nnc(-c2cc3cc(Br)ccc3o2)n1CC	-0.6	x	x	x	x	-7.3%	2.2	31.3	u	-4.8
C/C(CC(=O)Nc1ccc2c(c1)OCO2)=N\NC(=O)c1ccccc1N	0.2	0.5	2.1	5.9	-2.4	1.8%	-9.5	x	-1.4	1.4
Cc1ccccc1CC1SC(N=C(N)N)=NC1=O (stereo unspecified)	-1.6	-4.5	-5.2	-10.8	9.1	u	-2.6	x	-3.9	-1.0
CCN1CCN(C(=O)CS(=O)Cc2nc(-c3cccc(C)c3)oc2C)CC1 (stereo unspecified)	-0.8	3.2	3.6	8.6	-1.2	3.5%	-0.8	-5.4	0.0	0.2
COc1cccc(CC(NC(C)=O)C(=O)NC2CCN(C(=O)C3CCCCC3)CC2)c1OC (stereo unspecified)	x	-0.1	4.4	12.8	-2.1	x	-4.0	x	u	-11.9
COc1cc(/C=C/C(=O)N2CCN(C)CC2)cc(S(=O)(=O)N2CCc3ccccc32)c1OC	0.6	3.3	1.7	3.3	-7.0	10.4%	12.9	-1.1	6.7	2.1
COc1ccc(CCNC(=O)CS(=O)(=O)Cc2nc(-c3ccc(C)cc3)oc2C)cc1OC	-0.7	-1.3	19.2	19.1	7.3	x	16.0	-0.4	5.0	5.4
O=S(=O)(Nc1nc2cc3c(cc2nc1Cl)OCCO3)c1ccccc1	0.2	2.0	-21.8	-25.7	-2.0	-1.2%	39.7	-1.6	-6.3	0.6
CCOC(=O)C1CCN(CC(=O)N2CCc3ccccc32)CC1	0.2	1.2	9.5	8.5	-3.1	x	-4.2	-4.0	0.5	-9.9
COc1ccc(NC(=O)c2c(C)noc2C(C)C)cc1S(=O)(=O)N1CCCCC1	-0.7	0.3	x	x	x	24.2%	x	2.4	x	x
Cc1sc2nc[nH]c(=O)c2c1-c1ccc(F)cc1	0.5	-0.5	0.7	-1.7	0.7	-6.4%	-20.9	-4.8	4.1	-16.5
C=CCn1c(=NC(=O)c2ccccc2[N+](=O)[O-])sc2cc(S(C)(=O)=O)ccc21	0.6	6.9	8.9	8.0	-1.6	6.6%	-24.2	9.5	-2.1	24.6
CCCCn1c(=O)[nH]c(=O)c2c(C(=O)OCC)cc(-c3ccc(OC(F)F)cc3)nc21	-2.4	-2.8	16.0	26.6	-3.2	2.1%	1.6	10.5	0.6	16.3
CC(=O)c1cnc(-c2ccccn2)s1	0.1	0.2	5.7	2.3	0.8	0.5%	-2.3	-8.2	-2.9	3.2
COc1cccc(NC(=O)CSc2nnc(Cc3ccc(C)cc3)c(=O)n2N)c1	-0.2	2.1	-23.8	-20.0	0.0	-2.2%	2.8	x	0.2	22.2
O=C(Nc1ccc(F)cc1)N1CCC(c2nc3c(nnn3Cc3ccccc3Cl)c(=O)[nH]2)CC1	0.9	-7.2	-25.3	-41.5	-0.2	-8.6%	3.4	2.2	4.1	-3.8
C=CCN1C(=O)c2cccc3c(N4CCCCC4)ccc(c23)C1=O	-0.1	-17.8	29.8	11.2	-2.2	-15.1%	-0.6	11.0	-215.9	25.8
CC(=O)Nc1ccc(C(=O)COC(=O)c2c(C)noc2C)c(F)c1	-3.8	1.3	-3.9	-8.4	-3.4	-2.1%	x	-4.9	x	x
Cc1ccc(S(=O)(=O)N2CC(O)C[C@H]2C(=O)OCC(=O)Nc2ccc(N3CCCCC3)cc2)cc1C (stereo partly specified)	0.4	3.6	-13.9	-20.5	6.9	9.2%	1.2	-0.2	0.0	1.2
